High-throughput results (PubChem BioAssay)
Lassa entry inh = blocks Lassa virus binding to or entry into cells | Lassa virus pseudotype entry inhibition, cell reporter; control for the full effect not named in the record | Potency, µM (series often up to 37.9 µM), without a hit: at the top dose activity change, negative = inhibition, most hits filed as inhibitors | 300,000 tested, 1.2% active; active means well fitted inhibition curve with a large enough effect; inconclusive means small, poorly fitted or top-dose-only effect, or effect the other way; inactive means flat fitted curve, though single readings scatter; tested in HEK293 cells; also: % is scaled to controls: 0 for no effect and ±100 for the full control effect; nearly all actives have a fitted effect of over 50% in size; luciferase read-out
2A StopGo = lowers the luciferase signal of an FMDV 2A StopGo reporter. human cells with a luciferase reporter of 2A StopGo recoding; control for the full effect not named in the record. Potency, µM (top dose mostly 57.9 µM), without a hit: at the top dose signal change, negative = less light. 410,000 tested, 1.2% active; active = well fitted falling curve with a large enough effect; inconclusive = small, poorly fitted or top-dose-only effect; inactive = no such curve, though single readings can be large or run the other way; tested in HEK293T cells; also: % is scaled to controls: 0 for no effect and ±100 for the full control effect; nearly all actives have a fitted effect of over 45% in size; luciferase light after 4 h
NS1 function inh = inhibitors of influenza NS1 protein function | S. cerevisiae slowed by influenza A NS1, growth recovery by OD600 | Potency, µM (doses to about 46.1 µM), for inactives: at the top dose activity, positive = more growth | 270,000 tested, 0.4% active; also: actives are rising curves; nearly all actives have a fitted effect of over 50% in size
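Recovery from NS1-induced slow growth read by OD600 in budding yeast switched to galactose assay medium (pH 6.0, -URA) at 1:100 dilution. Compound 23 nl per well; the matching strain lacking NS1 serves as control.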
RE007 growth inh = less growth of the S. pombe RE007 Vpr strain. S. pombe RE007 Vpr strain, BacTiter-Glo ATP luminescence, 24 h; control for the full effect not named in the record. Potency, µM (series often up to 92.2 µM), for inactives: at the highest dose activity change, negative = less growth. 360,000 tested, 0.21% active; active = well fitted falling curve with a large enough effect; inconclusive = small, poorly fitted or top-dose-only effect; inactive = no such curve, though single readings can be large or run the other way;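 also: % is scaled to controls: 0 for no effect and ±100 for the full control effect; nearly all actives have a fitted effect of over 50% in size; the assay follows cell death caused by Vpr and the record does not say whether a fall means rescue or toxicity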
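Fission yeast RE007 carrying one integrated HIV-1 vpr copy, seeded at OD 0.01 in PMG+AL medium with 23 nL pinned compound. Grown 24 h at 30 degrees; viability read by BacTiter-Glo luminescence after 5 min.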
Cruzain noTriton = cruzain (T. cruzi) inhibition without detergent | P25779 | purified cruzain, Z-FR-AMC fluorescence, no detergent | Potency, µM, for the others: max response, negative = inhibition, usual class: inhibitors | 200,000 tested, 2.3% active | AID 1476; active = well fitted curve in the direction sought with a large enough effect; inconclusive = small, poorly fitted or top-dose-only effect, or another doubt; inactive = no such curve, though single readings can be large; an effect the other way counts as inactive or inconclusive;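 also: plate controls were enzyme without inhibitor for no effect and buffer without enzyme for full effect; nearly all actives have a fitted effect of over 40% in size; top concentration of the series not given in the record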
Target sequence (P25779 123-467 limits assumed): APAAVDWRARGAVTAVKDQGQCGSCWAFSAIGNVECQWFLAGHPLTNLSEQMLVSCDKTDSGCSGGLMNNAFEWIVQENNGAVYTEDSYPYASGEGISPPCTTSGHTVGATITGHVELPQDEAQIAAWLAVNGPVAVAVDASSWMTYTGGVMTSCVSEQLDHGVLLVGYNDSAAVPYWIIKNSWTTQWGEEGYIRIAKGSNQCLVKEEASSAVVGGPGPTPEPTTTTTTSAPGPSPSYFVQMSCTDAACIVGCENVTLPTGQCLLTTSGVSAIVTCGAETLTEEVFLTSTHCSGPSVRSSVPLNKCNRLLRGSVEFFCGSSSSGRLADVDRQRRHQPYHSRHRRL
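Detergent-free condition (0.00005% Triton X-100) in acetate buffer pH 5.5 with DTT. 1.5 nM enzyme and compound were pre-mixed 15 min, then 2 uM Z-FR-AMC substrate added; reaction progress from fluorescence change between first and third reads (60 s).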
MARV entry inh = inhibitors of Marburg virus binding or cell entry | Marburg virus pseudotyped entry inhibition, cell reporter; control for the full effect not named in the record; about a third of the inactives were read at about 46 µM | Potency, µM (top dose mostly 37.8 µM), for the others: at the highest dose activity change, negative = inhibition, most hits filed as inhibitors | 300,000 tested, 1.8% active | AID 540276; active = well fitted inhibition curve with a large enough effect; inconclusive = small, poorly fitted or top-dose-only effect, or effect the other way; inactive = flat fitted curve, though single readings scatter; tested in HEK293 cells; about a fifth of its hits are not listed in these tables; also: % is scaled to controls: 0 for no effect and ±100 for the full control effect; luciferase read-out
Cruzain Triton = blocks cruzain activity in presence of Triton detergent | 200,000 tested, 0.43% active | P25779 | Potency, µM, for inactives: max response, negative = inhibition, hits mostly inhibitors | purified cruzain, Z-FR-AMC fluorescence, 0.01% Triton | AID 1478; active = well fitted curve in the direction sought with a large enough effect; inconclusive = small, poorly fitted or top-dose-only effect, or another doubt; inactive = no such curve, though single readings can be large; an effect the other way counts as inactive or inconclusive;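 also: plate controls were neutral wells for no effect and buffer without enzyme for full effect; nearly all actives have a fitted effect of over 40% in size; top concentration of the series not given in the record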
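In this qHTS format, compounds are incubated with 1.5 nM cruzain for 15 min at room temperature before 2 uM Z-FR-AMC is added. Release of AMC is followed at 360/450 nm, and progress is taken as the 60 s fluorescence difference.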
SARS PLpro yeast = blocks SARS-CoV papain-like protease in a yeast assay; 330,000 tested, 0.19% active; Potency, µM (series often up to 32.9 µM), for the others: at the top dose activity, positive = growth rescue; S. cerevisiae expressing SARS-CoV PLpro, growth rescue; control for the full effect not named in the record; also: 0% is about no effect; nearly all actives have a fitted effect of over 55% in size; growth read by luminescence after 48 h
Active calls of the source: *; ? = inconclusive; / = no result given; & = joins results of further samples; [ ] = dose if it differs, or a comment. Unless noted, calls follow the shape of the dose curve; as a rule, active means well fitted rising curve with a large enough effect; inconclusive means small, poorly fitted or top-dose-only effect; inactive means no such curve, though single readings can be large or run the other way. Potency is read from the fitted curve at half-maximal effect.

SMILES	Lassa entry inh	2A StopGo	NS1 function inh	RE007 growth inh	Cruzain noTriton	MARV entry inh	Cruzain Triton	SARS PLpro yeast
CCOc1ccc(/C=N/NC(=O)c2nnn(-c3nonc3N)c2CN(C)C2CCCCC2)cc1	/	-16%	1%	2%	/	/	/	-3%
CCOC(=O)c1[nH]c2ccccc2c1N=CN(C)C	6%	23%	/	-3%	/	11%	/	/
CCCNc1cc(C)oc(=O)c1C(=O)CC	7%	-23%	/	5%	/	-6%	/	-2%
COc1ccc(C(C#N)N2CCOCC2)cc1 (stereo unspecified)	0%	0%	1%	9%	-2%	2%	0.6%	5%
COC(=O)c1nn2c(C(F)(F)F)cc(-c3ccc(Br)o3)nc2c1Br	-28%	-27%	-3%	-11%	?	-5%&-5%	-4.3%	0%
CCc1ccc(N2CCCn3c2nc2c3c(=O)n(CCN3CCOCC3)c(=O)n2C)cc1	/	/	0%	/	11%	/	-1.0%	2%
CCn1c2ccccc2c2nc3cc(OC)c(OC)cc3nc21	-23%	-9%	-16%	-15%	?	?	-3.4%	-30%
CCCCC(=O)N/N=C/c1c(O)n(CCc2ccccc2)c(=O)[nH]c1=O	-17%	-18%	-5%	-11%	/	0%[46.1 µM]	/	0%
Cc1ccc(CNC(=O)c2oc3ccc(S(=O)(=O)N4CCCC(C)C4)cc3c2C)cc1 (stereo unspecified)	?	?	/	/	-3%	?	-3.8%	/
Cn1c(OCc2ccco2)nc2c1c(=O)n(Cc1ccc(Cl)c(Cl)c1)c(=O)n2C	-7%	-21%	-31%	-8%	4%	1%	-5.2%	-14%
COc1ccc(C(C#N)C2(C)OCCO2)cc1OC (stereo unspecified)	3%	/	12%	-6%	-9%	19%	0.4%	-2%
O=C(N/N=C/c1ccccc1OC(F)F)NC1CCCCC1	-26%	-4%	1%	-18%	/	?	/	-7%
Cc1ccc(NC(=O)c2ncn(CC(=O)NCC(C)c3ccccc3)n2)cc1C (stereo unspecified)	/	33%[activator]	/	0%	/	8%	/	-2%
S=c1nc(-c2cc(Cl)cc(Cl)c2)[nH][nH]1	3%	-21%	1%	26%	/	1%	/	1%
Cc1ccc2c(c1)N(C(=O)N1CCC(C(=O)NC3CCCCCC3)CC1)CC(C)O2 (stereo unspecified)	-7%[46.1 µM]	-4%	/	/	1%	/	-2.8%	/
Cc1noc(C)c1C(=O)NC(Cc1c[nH]c2ccccc12)C(=O)O (stereo unspecified)	-6%[46.1 µM]	-11%	/	3%	/	-16%[46.1 µM]	/	4%
COc1ccc(N=C2SC(C(=O)Nc3ccc(C(=O)O)cc3)CC(=O)N2Cc2cccs2)cc1 (stereo unspecified)	-19%	-14%	-3%	-26%	/	-23%[46.1 µM]	/	0%
O=C(Nc1ccc(NC(=S)NC(=O)c2cccs2)cc1)c1ccco1	-8%[46.1 µM]	-12%	-3%	-5%	/	?	/	0%
CCOC(=O)c1c(C)[nH]c(C)c1S(=O)(=O)N(C)CC(=O)Nc1ccc(C)cn1	/	24%	7%	2%	/	/	/	-1%
O=C(CNC(=O)c1ccccc1Br)NCCSc1ccc(Br)cc1	-8%	5%	/	1%	/	-20%	/	8%
CSc1ccc(/C=C(\C(=O)O)c2ccc(S(=O)(=O)N3CCCCC3)s2)cc1	/	2%	17%	2%	15%	/	-18%	-5%
COCCNC(=S)N(CCc1c(C)[nH]c2ccccc12)Cc1cccnc1	4%	-7%	-3%	-13%	/	-8%	/	-1%
CCOC(=O)CCCCN(Cc1ccccc1F)S(=O)(=O)c1ccc(F)c(C(=O)Nc2cc(Cl)cc(Cl)c2)c1	-8%[46.1 µM]	-11%	/	/	-12%	/	0.4%	/
CC(C)(C)OC(=O)NCCCC[C@H](NC(=O)c1[nH]cnc1C(=O)Nc1ccc(CNC(=O)OC(C)(C)C)cc1)C(=O)OC(C)(C)C	/	0%	0%	-2%	/	/	/	4%
COC(=O)C1=C(C)N(Cc2ccccc2)C(=O)N[C@H]1c1cccc(C(F)(F)F)c1	/	0%	4%	-3%	/	17%[14.2 µM]	/	-3%
CCN(CC)CCCNC(=O)c1cn(CC)c2ccc(S(=O)(=O)N3CCC(C)CC3)cc2c1=O	-3%[46.1 µM]	-13%	/	/	-4%	0%[46.1 µM]	-3.9%	/
COc1ccccc1CNC(=O)C1CCCN(S(=O)(=O)c2ccc3c(c2)oc(=O)n3C)C1 (stereo unspecified)	3%[46.1 µM]	0%	/	/	-2%	-6%[46.1 µM]	-1.4%	/
O=C(COc1cc(F)ccc1[N+](=O)[O-])NCCN1C(=O)CSC1=O	-9%	-26%	/	13%	/	?	/	-5%
CC(=O)c1ccc(NC(=S)N2CCN(C(=S)Nc3ccc(C(C)=O)cc3)C(C)C2)cc1 (stereo unspecified)	-28%	26%	1%	18%	/	-11%[46.1 µM]	/	-1%
COc1cccc(N(CC(=O)NCc2cccnc2)S(C)(=O)=O)c1	12%	11%	-4%	13%	9%	-11%	5.9%	-5%
Cc1cc(C)c(C#N)c(SCC(=O)Nc2ccccc2C#N)n1	-9%[46.1 µM]	-11%	/	/	2%	/	-1.2%	/
Cc1ccc2c(c1)N(C(=O)CCC(=O)NCCN1CCOCC1)CCO2	/	-4%	-12%	-11%	/	/	/	-2%
COc1ccc(-c2nc(CS(=O)CC(=O)N3CCC4(CC3)OCCO4)c(C)o2)cc1 (stereo unspecified)	1%	4%	1%	12%[3.69 µM]	5%	10%	-0.2%	5%
O=C(NC1CCCC1)C(c1cccnc1)N(Cc1ccc(F)cc1)C(=O)c1csnn1 (stereo unspecified)	-2%[46.1 µM]	5%	-16%	-7%	/	?	/	0%
Cc1ccc(NC(=O)CSc2nnc3c(n2)[nH]c2ccccc23)cc1	2%[46.1 µM]	6%	13%	10%	/	2%[46.1 µM]	/	0%
CSc1ccccc1C(=O)Nc1ncn[nH]1	/	8%	2%	-3%	/	/	/	1%
CCc1ccccc1N1C(=O)N(C)c2ccccc2S1(=O)=O	4%[46.1 µM]	-18%	/	/	9%	/	-0.8%	/
Cc1cc(NC(=O)Nc2nnc(N(C)Cc3ccccc3)s2)ccc1Br	-16%[46.1 µM]	-21%	/	/	-6%	?	-7.2%	/
COC(=O)c1ccc(S(=O)(=O)NCc2ccco2)n1C	1%	24%	4%	0%	/	0%[46.1 µM]	/	2%
O=C(c1cccc(C(F)(F)F)c1)N1CCN(S(=O)(=O)c2ccc(Cl)s2)CC1	-12%	-27%	-29%	-4%	/	1%	/	0%
O=C1CS/C(=N/N=C/c2ccc(OS(=O)(=O)c3ccccc3)cc2)N1	26%	6%	/	-1%	/	3%	/	0%
CCN(CC)C(=O)c1ccc2c(c1)C1C(Cl)C(Sc3ccccc3[N+](=O)[O-])CC1C(C(=O)O)N2 (stereo unspecified)	/	-28%	12%	-2%	/	/	/	1%
COc1ccccc1N1CCN(Cc2ccc(SC)cc2)CC1	/	-26%	-3%	-23%	/	/	/	-7%
CC1C(=NO)C(C)C(c2ccccc2)NC1c1ccccc1 (stereo unspecified)	-10%	-10%	-2%	21%	-4%	-20%	4.6%	6%
O=C(CNC(=O)c1ccco1)N/N=C/c1ccc(C(=O)O)cc1	5%	-7%	13%	-3%	/	12%[46.1 µM]	/	1%
COc1ccc(-c2nc(CN3CCC(C(=O)NC4CC4)CC3)c(C)o2)cc1OC	11%[46.1 µM]	12%	3%	6%	/	17%[46.1 µM]	/	4%
O=C(O)c1cc(O)ccc1NC(=O)C(c1ccccc1)c1ccccc1	/	-6%	20%	-14%	/	/	/	3%
CC(C)Cc1nc2oc3c(Cl)ncnc3c2c2c1CCCC2	16%	?	1%	15%	/	-4%[46.1 µM]	/	-3%
Cc1nc2ncnn2c(N2CCN(S(=O)(=O)c3ccc(Br)cc3)CC2)c1C	9%	?	0%	-1%	/	-2%[46.1 µM]	/	0%
COc1ccc(CCNC(=O)Cn2c(=O)nc(-c3ccccc3F)c3cc(Cl)ccc32)cc1OC	?	24%	/	/	?	/	-1.2%	/
The listing continues:
SMILES	Lassa entry inh	2A StopGo	NS1 function inh	RE007 growth inh	Cruzain noTriton	MARV entry inh	Cruzain Triton	SARS PLpro yeast
CC(C)(C)c1cc(C(=O)NC2CC2)n(Cc2ccc(F)cc2)n1	?	0%	3%	5%	/	?	/	1%
CCn1ncc(Cl)c1C(=O)Nc1cc(Cl)ccc1Cl	-5%	?	-38%	-11%	-6%	-3%	-1.7%	/
Cc1ccc(NC(=O)CSc2ccc(-c3ccc4c(c3)OCO4)nn2)cc1F	-9%	25%	8%	-9%	-1%	?	5.0%	16%
CCCSC1=N/C(=C\c2ccc([N+](=O)[O-])o2)C(=O)S1	15%	?	3%	?	/	?	/	0%
CC1CCN(S(=O)(=O)c2csc(C(=O)Nc3ccccc3)c2)CC1	?	/	6%	1%	7%	?	-3.2%	4%
Cn1c(N2CCC(C(N)=O)CC2)nc2c1c(=O)n(Cc1cccc(Br)c1)c(=O)n2C	12%	-15%	-18%	7%	?	-2%	-0.6%	4%
Cc1ccc2c(c1)cc(CN(Cc1ccc3c(c1)OCO3)C(=O)c1ccccc1)c1nnnn12	-5%	-10%	0%	-1%	?	?	-4.3%	4%
COC(=O)C(C)N(c1ccc(OC)cc1)S(C)(=O)=O (stereo unspecified)	-6%	-9%	2%	-12%	/	2%[46.1 µM]	/	-1%
CCc1ccc(NC(=O)Nc2ccccc2OCc2cc(=O)n3ccccc3n2)cc1	-3%[46.1 µM]	-15%	/	/	6%	/	2.7%	/
Cc1cc(NC(=O)CSc2nc(-c3ccc(Br)cc3)nc3c2c(=O)n(C)c(=O)n3C)no1	0%	-19%	8%	24%	/	-1%	/	-5%
Cn1ccc2cc(S(=O)(=O)N3CCCC(C(=O)NCc4ccc(F)cc4)C3)ccc21 (stereo unspecified)	-6%[46.1 µM]	-13%	/	/	?	/	-3.4%	/
COc1cc(/C=N/NC(=O)c2cccnc2)ccc1OC(=O)c1cc(OC)c(OC)c(OC)c1	?	?	-13%	1%	/	5%[46.1 µM]	/	-1%
CSc1ccc(C(=O)NCC(c2ccco2)N(C)C)cc1[N+](=O)[O-] (stereo unspecified)	16%[46.1 µM]	6%	-13%	1%	/	13%[46.1 µM]	/	-1%
C=CCNC(=O)c1oc2ccc(S(=O)(=O)N3CCC4(CC3)OCCO4)cc2c1C	/	-13%	-12%	10%	/	/	/	-4%
